BJeLR lethal: BJeLR cell viability loss. BJeLR (HRASV12) viability, CellTiter-Glo ATP luminescence, 48 h; reference of the scale not given here. inhibition, % (no concentration beside the values). hit rate 0.17% among 300,000. AID 1554;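 active means replicate mean above 50%; inconclusive means above 50% but judged a plate artefact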;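 further: 50 nL library stock added to about 25 µL; numbers are from one replicate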
ugtP null kill: kills S. aureus RN4220 lacking UgtP; growth inhibition, % (test concentration not listed); AID 1259309; S. aureus RN4220 ugtP deletion, OD600 growth, 16 h; some inactives read as strong as hits; hit rate 0.54% among 330,000;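 active means z-score under -3 and OD600 up to 0.15 on both plates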;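 further: plate controls were untreated wells for no effect and antibiotic for full effect; wells of about 80 µL received 100 nL stock; the first replicate is given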
PrP 5UTR inh: suppresses PrP 5' UTR mRNA reporter expression; cell-based PrP 5' UTR mRNA reporter, plate reader; inhibition, % (no concentration beside the values); hit rate 0.35% among 340,000;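 active means every replicate at 50% or more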;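 further: 0 = median of the neutral control wells; tested in H4 reporter cells; numbers are from one replicate; inactives centre near -14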
Bead autofluor: flagged as autofluorescent in microsphere protease counterscreen. compound autofluorescence counterscreen, microsphere flow cytometry; hits give high values. fluorescence intensity (test concentration not listed). hit rate 3.1% among 360,000;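 active means at least 3 SD above the mean of all compounds, about 16000 in these data; inconclusive means too few beads counted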;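 further: 100 nL of 1 mM stock went into each well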
RN4220 kill: S. aureus RN4220 growth inhibition; inhibition, % (test concentration not listed); OD600, 16 h; hit rate 0.33% among 330,000;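 active means z-score of -3 or lower and OD600 up to 0.18 on both plates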;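 further: plate controls were untreated cells for no effect and reference antibiotic for full effect; stock transfer was 100 nL into about 80 µL; one replicate is shown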
Mtb hypoxia inh: Mtb hypoxia fluorescent reporter inhibition; M. tuberculosis hypoxia-regulated fluorescent reporter, fluorescence; fluorescence inhibition, % (no concentration beside the values); hit rate 0.1% among 300,000;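 active means 35 to 45% if threefold the growth effect, above 45% if 1.5-fold the growth effect; inactive means the rest, general growth blockers included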;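 further: wells of about 50 µL received 100 nL stock; 0% = vehicle wells and 100% = reference inhibitor wells; whole bacteria with a GFP reporter of the hypoxia response; strong numbers were not always called active; many hits fall short of the cut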
Mtb hypoxia inh growth: also measured in Mtb hypoxia inh; calls as there; growth inhibition, %; measured here: M. tuberculosis growth (absorbance);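 0% = vehicle and 100% = reference antibiotic; read after six days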
* = called active by the depositor; ? = inconclusive; / = no result given; & = joins results of further samples.

molecule	BJeLR lethal	ugtP null kill	PrP 5UTR inh	Bead autofluor	RN4220 kill	Mtb hypoxia inh	Mtb hypoxia inh growth
CN(Cc1ccccc1)C(=O)CN1C(=O)NC(C)(c2ccc(Cl)cc2)C1=O (stereo unspecified)	-6	1	-33	4177	-0.7	17	4
COC(=O)c1cn(C(=O)c2cc(Cl)ccc2Cl)c2ccccc12	-7	11	-16	3190	7.9	15	5
CCOC(=O)N/N=C(C)/C=C/c1ccco1	0	/	-8	2572	/	/	/
CC(Oc1ccc(Cl)cc1Cl)C(=O)Nc1ccncc1 (stereo unspecified)	40	-5	2	2194	2.4	/	/
COc1ccc(CN(C)C(=O)c2ccc(NS(=O)(=O)c3ccccc3)cc2)c(OC)c1	0	45	-2	5974	1.6	4	7
CCOC(=O)c1cnn(-c2ccccc2)c1NC(=O)c1ccc(C)cc1	2	2	-19	23981*	2.8	7	-1
COc1ccc(C(=O)NCCN=C2NS(=O)(=O)c3ccccc32)cc1	-4	4	-8	5327	5.9	17	6
Cc1ccc(CNC(=O)C(Cc2ccccc2)n2cccc2)cc1 (stereo unspecified)	10	16	-2	4523	-2.5	18	5
Nc1nc(-c2ccccc2)[nH]c(=O)c1N	16	-7	-29	2177	3.5	7	5
Cc1ccc(S(=O)(=O)c2nc(-c3ccccc3)oc2SCC(=O)NCC2CCCO2)cc1 (stereo unspecified)	-12	2	-6	5943	3.5	-1	-5
CCOc1ccc(Cl)cc1S(=O)(=O)N1CCN(c2ccc(F)cc2)CC1	1	-4	-17	10000	21	6	3
COc1ccc(C(CCNCc2ccc(OC(C)C)cc2)c2ccccc2OC)cc1 (stereo unspecified)	22	-26	-6	3976	-7.2	10	6
Cc1nc2ccccc2n1CC(O)c1ccccc1 (stereo unspecified)	-10	-1	-2	3086	26	-2	-6
O=C(CSc1nnc(-c2cccs2)n1-c1ccccc1)NCc1ccc2c(c1)OCO2	-10	2	-4	4174	3.7	0	1
CCN(CC)S(=O)(=O)c1cccc(C(=O)N2CC(O)CC2C(=O)OC)c1 (stereo unspecified)	-1	1	-17	2795	-0.8	/	/
COc1cc(C=NNC(=O)C(=Cc2ccccc2)CCO)ccc1O	/	5	/	/	1.1	4	5
Cc1ccc(-c2cc(C(=O)NCCCN3CCOCC3)c3ccc(Cl)c(C)c3n2)cc1	2	-17	-15	4192	-5.3	14	14
Nc1cc2c(cc1Cl)-c1ccc(Cl)cc1C2=O	/	0	-17	2805	0.9	4	-1
CC(NC(=O)c1ccc(Cl)cc1Cl)C(c1ccccc1)N1CCOCC1 (stereo unspecified)	9	8	-22	3531	8.1	8	2
CN(C)C=NN(C)c1ncccc1[N+](=O)[O-]	/	3	/	/	1.5	2	-5
COc1ccc(C=NNC(=O)c2nn(-c3ccccc3)c(=O)c3c(N)scc23)cc1	/	-10	/	/	8.7	2	11
O=C(Cn1nnc2ccccc21)OCC(=O)c1ccccc1	-2	3	-3	3274	1.6	2	10
O=C(O)COc1ccccc1C=NNC(=O)c1ccccc1NS(=O)(=O)c1cccs1	/	0	-18	3455	5.6	5	2
Cc1cc(SCCOc2ccc(Br)cc2)nc(N)n1	8	6	-12	4158	10	/	/

Entries from the list above containing a thiophene ring, fused or not, in the order listed:
molecule	BJeLR lethal	ugtP null kill	PrP 5UTR inh	Bead autofluor	RN4220 kill	Mtb hypoxia inh	Mtb hypoxia inh growth
O=C(CSc1nnc(-c2cccs2)n1-c1ccccc1)NCc1ccc2c(c1)OCO2	-10	2	-4	4174	3.7	0	1
COc1ccc(C=NNC(=O)c2nn(-c3ccccc3)c(=O)c3c(N)scc23)cc1	/	-10	/	/	8.7	2	11
O=C(O)COc1ccccc1C=NNC(=O)c1ccccc1NS(=O)(=O)c1cccs1	/	0	-18	3455	5.6	5	2

The results go on.
molecule	BJeLR lethal	ugtP null kill	PrP 5UTR inh	Bead autofluor	RN4220 kill	Mtb hypoxia inh	Mtb hypoxia inh growth
CCn1c(SCc2cccc(OC)c2)nc2ccccc2c1=O	-3	14	-20	5430	1.3	18	6
CC(C)CC(=O)Nc1cc2nn(-c3ccccc3)nc2cc1Cl	13	2	-37	9082	3.4	5	-2
Cc1ccc(NC(=O)c2ccc(S(=O)(=O)N3CCOCC3)cc2)cc1	7	1	-4	2954	5.7	-1	-4
O=C(CCN1CCN(C/C=C/c2ccccc2)CC1)Nc1ccccc1F	3	2	-12	2295	5.1	-3	8
COc1cccc(/C=N\NC(=O)c2ccc(Cn3cc(Br)c([N+](=O)[O-])n3)o2)c1O	12	/	11	4769	/	/	/
CCOC(=O)c1ccc(COC(=O)CNS(=O)(=O)c2ccccc2)cc1	0	-7	-10	4169	0.9	-6	5
CC1CCCN(c2nc3c(c(=O)[nH]c(=O)n3C)n2CCCc2ccccc2)C1 (stereo unspecified)	3	4	-42	5816	5.4	9	11
Cc1ccc(S(=O)(=O)CCN2C=CC(C(F)(F)F)=NCC2)cc1	14	-1	-28	4195	1.4	-4	12
N#CC(=NNc1cccc(C(F)(F)F)c1)C(=O)c1ccsc1	/	97*	/	/	100*	9	2
COc1ccc(NC(=O)CCn2c(=O)c3cccn3c3ccccc32)cc1	-12	9	-8	5601	1.6	14	4
Fc1ccc(CN2CCN(c3ncccn3)CC2)cc1	3	4	-8	8933	5.3	5	0
Cc1noc(C)c1C(=O)Nc1ccccc1-c1ccccc1	-2	5	-12	11170	1.6	2	1

Grouped by structure, the entries above containing bromine (2)
molecule	BJeLR lethal	ugtP null kill	PrP 5UTR inh	Bead autofluor	RN4220 kill	Mtb hypoxia inh	Mtb hypoxia inh growth
Cc1cc(SCCOc2ccc(Br)cc2)nc(N)n1	8	6	-12	4158	10	/	/
COc1cccc(/C=N\NC(=O)c2ccc(Cn3cc(Br)c([N+](=O)[O-])n3)o2)c1O	12	/	11	4769	/	/	/

More compounds follow.
molecule	BJeLR lethal	ugtP null kill	PrP 5UTR inh	Bead autofluor	RN4220 kill	Mtb hypoxia inh	Mtb hypoxia inh growth
Cc1ccc2c(c1)CCCN2C(=O)c1ccncc1	3	-12	-25	11047	-4.6	-4	7
COc1cc(Nc2nc3ccc(Cl)cc3n3cnnc23)cc(OC)c1OC	7	0	-2	3556	0.2	-8	4
Oc1cc(OCc2ccccc2)ccc1-c1[nH]ncc1-c1ccccc1	-2	29	0	3396	-3.8	1	1
CCOC(=O)C1=C(CSc2nc(CC)c(C)cc2C#N)OC(N)=C(C#N)C1c1ccc(OC)cc1 (stereo unspecified)	-10	11	-18	8114	6.4	13	20
CCN(CC)S(=O)(=O)c1ccc2nc(CSc3nnnn3-c3ccc(O)cc3)[nH]c2c1	12	-7	-21	3686	-4.0	-4	-3
COC(=O)NNC(=O)C(C)Oc1ccc(Cl)cc1Cl (stereo unspecified)	8	1	18	10746	0.7	5	8
COc1ccc(C(=O)/C=C/c2ccc(-c3ccccc3)cc2)cc1CSCC(=O)O	2	/	-13	?	/	/	/
CCN(CC)c1ccc2cc(C(N)=O)c(=N)oc2c1	-5	6	-39	5057	2.7	0	0
Cc1cccn(Cc2c(Cl)cccc2Cl)c1=O	-2	9	/	3958	4.7	3	8
CSCC[C@H](NC(=O)CC(C)(C)C)c1nc2ccccc2[nH]1	-17	3	/	9276	4.1	1	3
Cc1ccc(S(=O)(=O)CCC#N)cc1	8	3	-12	5110	2.3	-5	-1
CN(C(=O)CSc1cccc[n+]1[O-])C1CCCCC1	/	9	1	3780	3.9	7	6

Quoted from the listing.
CSCC[C@H](NC(=O)CC(C)(C)C)c1nc2ccccc2[nH]1 @ Mtb hypoxia inh growth: 3
Oc1cc(OCc2ccccc2)ccc1-c1[nH]ncc1-c1ccccc1 @ BJeLR lethal: -2
CN(C(=O)CSc1cccc[n+]1[O-])C1CCCCC1 @ Mtb hypoxia inh growth: 6

Next section
molecule	BJeLR lethal	ugtP null kill	PrP 5UTR inh	Bead autofluor	RN4220 kill	Mtb hypoxia inh	Mtb hypoxia inh growth
NC(=O)c1ccccc1N/C=C/C(=O)c1ccc(Cl)cc1	9	2	-44	2495	7.8	13	3
COc1ccc(C)cc1S(=O)(=O)N(C)CC(=O)NCc1ccco1	2	4	-6	2299	5.9	/	/
COc1cc(C(c2nnnn2C2CCCC2)N2CCN(C(=O)c3ccco3)CC2)cc(OC)c1OC (stereo unspecified)	2	14	-11	5375	-0.3	3	9
COc1ccc(/C=C(\NC(=O)c2ccco2)C(=O)Nc2ccc(C(C)=O)cc2)cc1	/	15	-8	4309	6.5	-3	-6
O=C(O)c1cccc(N/N=C/c2ccc(OC(F)(F)F)cc2)c1	1	/	44	3055	/	/	/
Cc1cccc(C(=O)Nc2cc(S(=O)(=O)N3CCOCC3)ccc2N2CCCCC2)c1	/	-8	-5	6328	0.9	-21	3
COc1ccc(Cn2nnnc2C(c2cc3cccc(C)c3[nH]c2=O)N2CCOCC2)cc1 (stereo unspecified)	-6	-3	-22	10896	2.1	6	11
O=C(Nc1ccc(S(=O)(=O)NC2CCCC2)cc1)c1cnccn1	4	13	-7	15476	5.2	-3	5
C#CCOCCOCCOCCNc1nc(N2CCN(C(=O)Cn3cc(CCCN=C(N)N)nn3)CC2)nc(N2CCN(C(=O)C(C(C)O)n3cc(CCCCN)nn3)CC2)n1 (stereo unspecified)	/	-12	/	/	27	16	8
C/C(C=Nn1cnnc1)=C\c1ccccc1	/	1	/	/	-2.3	-2	-11
CC1(C)C(C=C(Cl)Cl)C1C(=O)N(Cc1ccccc1Cl)C1CCS(=O)(=O)C1 (stereo unspecified)	-2	6	-15	2412	8.2	-1	1
Cc1ccsc1/C=N/NC(=O)c1ccc2c(c1)OCCO2	-5	/	-21	3573	/	/	/
ON(CCc1ccccn1)CCc1ccccn1	/	1	-15	3875	3.5	11	5
COc1ccccc1NC(=O)c1cc2c(=O)n(C)c3ccccc3c2n1C	12	-4	-8	4877	1.2	-5	0
CN1CCN(Cc2nc3ccccc3c(=O)n2Cc2nc(-c3ccc4ccccc4c3)cs2)CC1	19	-26&-24	37&-10	3526&2350	-2.7&-2.9	10	8
COc1ccc(C2/C(=C(\O)c3ccc4c(c3)OCCO4)C(=O)C(=O)N2c2nc(C)c(C(C)=O)s2)cc1 (stereo unspecified)	-1	/	-4	4556	/	/	/
O=C(Nc1cnn(Cc2ccccc2)c1)c1cc2nc(-c3ccco3)cc(C(F)(F)F)n2n1	-8	-7	-13	3153	14	9	13
Cc1nc2cc3sc(C)nc3cc2s1	-13	9	-17	4430	-7.9	8	8
O=C(Nc1ccccc1OC(=O)N1CCOCC1)N1CCOCC1	7	9	-6	4883	0.2	/	/

Source: PubChem BioAssay (several laboratories)

Hits appear at their usual frequency; about 4.1% have a hit in one of these screens.
